Mtb growth: Mycobacterium tuberculosis H37Rv growth inhibition, putative kinase inhibitor library, confirmatory dose response (AID 2842). M. tuberculosis H37Rv growth inhibition; higher % means a stronger effect; some inactives read as strong as hits. one-dose inhibition, % at 10 µg/mL; IC90 in µg/mL for titrated hits. hit rate 5.2% among 24,000;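 active = confirmed in a dose series; inconclusive = mostly over 85% at the one dose but not retested; inactive = below 85% or not confirmed; about a fifth of its hits are not listed in these tables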;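 note: bacteria incubated one week before Alamar blue readout; 0% = bacteria only wells and 100% = bacteria with high antibiotic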
Starred values were filed as active, the others as inactive; ? = inconclusive. This is a subset; the hit share may differ from the screen's.

SMILES	Mtb growth
COc1ccc(/C=C2/SC(=Nc3cccnc3)NC2=O)cc1OC	-8%
CCn1c(=O)c2c(nc3n2C(C)=C(C)C3CCCOC)n(C)c1=O (configuration not stated)	-8%
O=C(CSc1nc2[nH]ncc2c(=O)[nH]1)Nc1ccc2c(c1)OCCO2	-6%
CCOC(=O)c1sc(Nc2nc3c(OC)cccc3s2)cc1C	?
O=C(COc1ccccc1)Nc1ccc2c(c1)OCO2	47%
O=C(c1ccccc1[N+](=O)[O-])N(Cc1ccccc1)c1nnc(C23CC4CC(CC(C4)C2)C3)s1	8%
N#CC1=C(N)Oc2c(oc(CO)cc2=O)C1c1ccccc1 (configuration not stated)	1%
O=C(CSC1=NS(=O)(=O)c2ccccc2N1)Nc1cccc2ccccc12	-10%
O=C(Nc1c(C(=O)Nc2ccc([N+](=O)[O-])cc2)oc2ccccc12)c1cccc(Cl)c1	42%
CC(C)CC(=O)Nc1cc(=O)n(C)c(=O)n1C	-16%
O=C(CCc1n[nH]c(=O)[nH]c1=O)N/N=C/c1c(Cl)cccc1Cl	3%
CCN(C(=O)c1ccc(S(=O)(=O)N2CCOCC2)cc1)C1CCS(=O)(=O)C1 (configuration not stated)	-9%
O=C(CN1CCC2(CC1)NC(=O)N(Cc1ccc(Cl)cc1)C2=O)Nc1cccc(F)c1	95%
O=C(CC1Nc2ccccc2NC1=O)Nc1cccc(Cl)c1 (configuration not stated)	68%
COc1ccc2cc(CCNC(=O)c3ccc(S(=O)(=O)N4CCOCC4)cc3)c(=O)[nH]c2c1	1%
Cc1ccc(NC(=O)CSc2nnc(-c3ccncc3)n2N)cc1C	-3%
O=C(/C=C/c1ccc2c(c1)OCO2)Oc1coc(CSc2ncccn2)cc1=O	-4%
COc1cccc(N2CC(NC(=O)N3CCN(c4ccc(F)cc4)CC3)CC2=O)c1 (configuration not stated)	2%
CC(=O)Nc1sc2c(c1C#N)CC(C)(C)NC2(C)C	4%
Cc1ccc2c(c1)C(=O)C(=O)N2CCn1c2ccccc2c2nc3ccccc3nc21	-8%
Cc1cccc(-c2nnc(NC(=O)c3ccc4ccccc4c3)s2)c1	6%
O=C(CSc1nnc2ccc(-c3cccs3)nn12)Nc1ccc2c(c1)OCO2	-11%
Cc1nc(SCC(=O)O)c2ccccc2n1	-8%
O=C(Nc1ccc(Cl)cc1C(=O)c1ccccc1)c1ccc(F)c(F)c1	-4%
Cc1cccc(Nc2ccc(NCc3ccccc3)nn2)c1	8%

The list goes on, overlapping the part above by seven compounds.
SMILES	Mtb growth
CC(=O)Nc1sc2c(c1C#N)CC(C)(C)NC2(C)C	4%
Cc1ccc2c(c1)C(=O)C(=O)N2CCn1c2ccccc2c2nc3ccccc3nc21	-8%
Cc1cccc(-c2nnc(NC(=O)c3ccc4ccccc4c3)s2)c1	6%
O=C(CSc1nnc2ccc(-c3cccs3)nn12)Nc1ccc2c(c1)OCO2	-11%
Cc1nc(SCC(=O)O)c2ccccc2n1	-8%
O=C(Nc1ccc(Cl)cc1C(=O)c1ccccc1)c1ccc(F)c(F)c1	-4%
Cc1cccc(Nc2ccc(NCc3ccccc3)nn2)c1	8%
CCOc1c(C)cnc2c1c(=O)n(Cc1cccnc1)c(=O)n2C	9%
O=C(CSc1n[nH]c(=O)[nH]c1=O)Nc1cccc(Cl)c1Cl	-3%
Cc1cccc(NC(=O)CN2N=NC3C(=O)N(c4ccc(F)c(Cl)c4)C(=O)C32)c1 (configuration not stated)	5%
O=C(Nc1c2c(nn1-c1ccc([N+](=O)[O-])cc1)CSC2)c1cc(Cl)ccc1[N+](=O)[O-]	-10%
Cc1ccc(S(=O)(=O)Nc2c(-c3ccccc3)c3cc(C)ccc3[nH]c2=O)cc1	1%
Cc1cc(NC(=O)c2cccc(Cl)c2)nc2c1c(=O)oc1ccccc12	-2%
O=C(Nc1nnc(-c2ccc(Cl)cc2Cl)s1)c1ccccc1I	-6%
O=C(CSc1ccc2nnc(-c3ccccc3)n2n1)Nc1nccs1	12%
CCC(CC)C(=O)Nc1nnc(C23CC4CC(CC(C4)C2)C3)s1	12%
CCS(=O)(=O)c1ccc(CC(=O)Nc2ccc3c(c2)C(=O)NC3=O)cc1	4%
CCOC(=O)C1=C(C)OC(N)=C(C#N)C1c1ccco1 (configuration not stated)	0%
Cc1ccc(C(=O)Nc2nc(-c3ccccc3)c(C(=O)c3ccccc3)s2)cc1	2%
Cc1cc2cc(CCNC(=O)COc3ccc4ccccc4c3)c(=O)[nH]c2cc1C	25%
COc1cccc2sc(NNC(=O)c3cc4ccccc4oc3=O)nc12	0%
CCS(=O)(=O)c1cccc(C(=O)Nc2nc3c(C)c(C)ccc3s2)c1	-11%
O=C(Nc1ccccn1)C1=C(c2ccccc2)NC(=S)NC1c1cccc(O)c1 (configuration not stated)	12%
O=C(CCc1ccccc1)Nc1nc2c(s1)CSc1ccccc1-2	43%
COc1ccc(S(=O)(=O)N2CC(=O)Nc3ccccc32)cc1	3%
Cc1ccc(S(=O)(=O)Nc2ccc(N3CCOCC3)cc2)cc1[N+](=O)[O-]	-4%
Cc1ccc(NS(=O)(=O)c2ccc(Cl)cc2)c(-c2nc3ccccc3[nH]c2=O)c1	13%
COc1ccc(C2c3c(oc4ccccc4c3=O)C(=O)N2CCc2ccccc2)cc1 (configuration not stated)	7%
O=C(CNc1ccc(F)cc1)Nc1ncc(Cc2cccc(Cl)c2)s1	9%
CC(C)n1c(SCC(=O)O)nc2c1c(=O)[nH]c(=O)n2C	13%
CCc1cc(=O)oc2cc(OC(C)C(=O)c3ccccc3)ccc12 (configuration not stated)	3%
CCOC(=O)c1sc(=NC(=O)CN2C(=O)c3ccccc3C2=O)n(C)c1C	0%

New compounds follow:
SMILES	Mtb growth
Nc1c(C(=O)NC2CCCCC2)sc2nc3c(cc12)C(=O)CCC3	79%
CCCCCCn1c(N=Nc2c(O)[nH]c3ccccc23)nc2c1c(=O)[nH]c(=O)n2C	2%
Cc1ccc(OCC2Cn3c(nc4c3c(=O)n(C)c(=O)n4C)O2)cc1C (configuration not stated)	4%
COc1ccc2nc(-c3cccc(NC(=O)C4CC4)c3)cn2n1	20%
Cc1cc([N+](=O)[O-])ccc1NC(=O)C(C)N1C(=O)c2ccccc2S1(=O)=O (configuration not stated)	1%
Cc1ccc(C)c2[nH]c(=O)c(CCNC(=O)COc3ccccc3)cc12	-5%
Cc1ccc(NC(=O)CS(=O)(=O)c2cn(C)c3ccccc23)c(C)c1	16%
COC(=O)c1ccc2c(c1)C(=O)/C(=C/c1ccc(O)c(OC)c1)O2	-2%
COc1ccc(NC(=O)CSc2nc(N)c(NC(=O)c3ccc(OC)c(OC)c3)c(=O)[nH]2)c(OC)c1	0%
Cc1csc(NC(=O)CSc2nncc(=O)n2N)n1	-11%
Cc1noc(NS(=O)(=O)c2ccc(NC(=O)c3ccccc3Br)cc2)c1C	-10%
COc1cc2c3nnc(-c4ccc(Cl)cc4)c-3cn(Cc3ccccc3F)c2cc1OC	22µg/mL*
O=S(=O)(Nc1cccc(-c2ccc(N3CCOCC3)nn2)c1)c1cc(Cl)ccc1Cl	-17%
CCN(C(=O)c1ccc([N+](=O)[O-])cc1)C1CCS(=O)(=O)C1 (configuration not stated)	-12%
COc1ccc(C)cc1NC(=O)c1c[nH]c(=O)n(-c2ccc(C)c(C)c2)c1=O	11%
COc1cccc(OCC(=O)Oc2ccc([N+](=O)[O-])cc2)c1	-4%
Cc1c(C)n2c3c(=O)[nH]c(=O)n(C)c3nc2n1CCCNc1ccccc1Cl	25µg/mL*
CCC(Sc1nc2ccccc2s1)C(=O)Nc1nnc(-c2ccc(OC)cc2OC)s1 (configuration not stated)	5%
Cc1ccc(-n2c(=O)[nH]c3c(C(N)=O)nc(C4CCCCC4)nc32)cc1C	-6%
N#C/C(=C\c1ccco1)c1nc(-c2ccc(Cl)cc2)cs1	-11%
Cn1c(=O)c2c(nc3n2CCCN3Cc2ccco2)n(C)c1=O	7%
CC(C)(C)NC(=O)Nc1nnc(SCC(=O)Nc2cccc([N+](=O)[O-])c2)s1	-10%
COc1ccc(-n2nnc3c(SCC(=O)NCC4CCCO4)ncnc32)cc1 (configuration not stated)	57%
Cc1cc(C)cc(NC(=O)CSc2nc3c(oc4ccccc43)c(=O)n2Cc2ccc(F)cc2)c1	-13%
Cc1ccccc1NC(=O)C(=O)Nc1ccc2c(c1)N(S(=O)(=O)c1cccs1)CCC2	-13%

(listing goes on)
SMILES	Mtb growth
CCOc1ccc(CC(=O)Oc2cc(C)[nH]c(=O)c2[N+](=O)[O-])cc1	4%
O=C(c1ccc(S(=O)(=O)N2CCCCC2)cc1)N1CCN=C1SCc1cccnc1	1%
CCOC(=O)N1CCc2c(sc(NC(=O)c3ccc(Oc4ccccc4)cc3)c2C(N)=O)C1	0.98µg/mL*
COc1ccc2cc(CCNC(=O)COc3ccc4ccccc4c3)c(=O)[nH]c2c1	6%
CC1CCCCN1S(=O)(=O)c1ccc(C(=O)Nc2nc(-c3ccc(Cl)cc3)cs2)cc1 (configuration not stated)	-1%
Cn1c(=O)c2c(nc(Sc3ccccc3)n2Cc2ccc(Cl)cc2)n(C)c1=O	-7%
O=C(Cc1ccccc1)Nc1nnc(-c2ccc(F)cc2)o1	8.3µg/mL*
CC(=O)c1cccc(Nc2ncnc(N)c2[N+](=O)[O-])c1	2%
CCSc1nnc(NC(=O)CSc2cn(C)c3ccccc23)s1	-5%
COC(=O)c1ccc(NC(=O)c2ccc(=O)[nH]n2)cc1	-4%
CN(C1CCCCC1)S(=O)(=O)c1ccc(C(=O)Nc2nc(-c3ccc(F)cc3)cs2)cc1	12%
Cc1ccc(C(C)C)c(OCC(=O)N=Nc2c(O)[nH]c3c(Br)cc(Br)cc23)c1	35%
CSc1ccccc1NS(=O)(=O)c1cc2c3c(c1)CCC(=O)N3CCC2	-8%
CCOC(=O)C1CCN(C(c2ccc(OC)c(OC)c2)c2sc3nc(C)nn3c2O)CC1 (configuration not stated)	-3%
CCOC(=O)c1ccc(NC(=O)CC2Sc3ccccc3NC2=O)cc1 (configuration not stated)	?
Cc1nc2sc(C(c3ccco3)N3CCN(CCO)CC3)c(O)n2n1 (configuration not stated)	-5%
COc1ccccc1NC1=C(Cl)C(=O)N(c2ccc(Cl)cc2Cl)C1=O	-7%
CCOC(=O)c1nn(-c2ccc(F)cc2)c(=O)c2c(NC(=O)c3cccc(Cl)c3)scc12	-10%
Nc1c(-c2nc(-c3ccccc3)no2)nnn1-c1ccccc1	-2%
COc1cc(OC)cc(-c2nnc(NC(=O)c3ccc([N+](=O)[O-])o3)o2)c1	9.1µg/mL*
CCCCNC(=O)C(=O)Nc1cc2c3c(c1)CC(=O)N3CCC2	-5%
CCOC(=O)C1=C(C)NC(=S)NC1c1ccc(-c2cc(Cl)ccc2Cl)o1 (configuration not stated)	2%
Cc1cc(=O)oc2cc(OC(=O)CC3CCS(=O)(=O)C3)ccc12 (configuration not stated)	53%
CCOc1ccc(-n2c(=O)[nH]c3c(C(N)=O)nc(-c4ccc(Cl)cc4Cl)nc32)cc1	-5%
CN(C(=O)COc1ccc(Cl)cc1)c1nnc(C23CC4CC(CC(C4)C2)C3)s1	-8%

Single entries from the list:
Entry for Cc1ccc(S(=O)(=O)Nc2ccc(N3CCOCC3)cc2)cc1[N+](=O)[O-] under Mtb growth: -4%
Entry for Cc1cccc(NC(=O)CN2N=NC3C(=O)N(c4ccc(F)c(Cl)c4)C(=O)C32)c1 (configuration not stated) under Mtb growth: 5%
Entry for CC(C)n1c(SCC(=O)O)nc2c1c(=O)[nH]c(=O)n2C under Mtb growth: 13%
Entry for N#C/C(=C\c1ccco1)c1nc(-c2ccc(Cl)cc2)cs1 under Mtb growth: -11%

The list goes on.
SMILES	Mtb growth
O=C(CN1C(=O)c2ccccc2C1=O)OCc1nc2ccccc2s1	-14%
COc1ccc(NC(=O)c2oc3ccccc3c2NC(=O)c2ccc(C)c([N+](=O)[O-])c2)cc1	2%
CCc1nnsc1C(=O)Nc1c(C(=O)Nc2ccccc2)oc2ccccc12	6%
CSc1nc2ccc3nc(NC(=O)c4c(F)cccc4F)sc3c2s1	9%
O=c1cc(/C=N/NC(=S)Nc2ccccc2)[nH]c(=O)[nH]1	64%
CCOC(=O)c1ccc2nc(NC(=O)c3ccco3)sc2c1	41%
COc1ccc(C(=O)Nc2c(N)nc(SC)[nH]c2=O)cc1OC	-2%
COc1ccc(C(=O)Nc2nnc(C3=COCCO3)o2)cc1	3.3µg/mL*
CCOc1cc(-c2nnc(NC(=O)c3ccc(F)cc3)o2)cc(OCC)c1OCC	-11%
CCc1nnc(NC(=O)C(C)Sc2nncn2C)s1 (configuration not stated)	-7%
O=C(Nc1cccc2c1C(=O)NC2=O)c1cccc(F)c1	-3%
O=C(/C=C\c1ccc2c(c1)OCO2)Nc1nnc(SCC(=O)N2CCCCC2)s1	-1%
CCOC(=O)c1[nH]c2ccccc2c1NC(=S)Nc1cccc(F)c1	22%
CCc1ccc(S(=O)(=O)NC2CCS(=O)(=O)C2)cc1 (configuration not stated)	3%
Cn1c2c(c(=O)[nH]c1=O)C(c1ccc(F)cc1)C1=C(CC(C)(C)CC1=O)N2 (configuration not stated)	1%
CCS(=O)(=O)Nc1ccc(-c2nc3cccnc3s2)cc1	3%
O=C(NCCc1c[nH]c2ccccc12)NC1CC(=O)N(c2ccc3c(c2)OCCO3)C1 (configuration not stated)	10%
CCCCC(CC)CNC(=O)C1CCC(Cn2c(=O)[nH]c3ccsc3c2=O)CC1 (configuration not stated)	-2%
O=C(COc1ccccc1)N1CCN(c2ncnc3c2nnn3-c2ccc(Cl)cc2)CC1	-2%

At a glance, some entries already given.
SMILES	Mtb growth
CCOC(=O)c1ccc2nc(NC(=O)c3ccco3)sc2c1	41%
COc1ccc(C(=O)Nc2c(N)nc(SC)[nH]c2=O)cc1OC	-2%
COc1ccc(C(=O)Nc2nnc(C3=COCCO3)o2)cc1	3.3µg/mL*

In the list so far, 2 contain bromine.
SMILES	Mtb growth
Cc1noc(NS(=O)(=O)c2ccc(NC(=O)c3ccccc3Br)cc2)c1C	-10%
Cc1ccc(C(C)C)c(OCC(=O)N=Nc2c(O)[nH]c3c(Br)cc(Br)cc23)c1	35%

Bioassay records as filed in PubChem.
